TRPML1 inh: human mucolipin-1 channel inhibition. Q9GZU1. TRPML1-inducible cells, Ca2+ dye fluorescence, FDSS; hits give low values; inhibition of EC80 agonist-evoked calcium signal. activity change, negative = inhibition, % (no concentration beside the values). 0.02% of 390,000 active. AID 624415; in the data active means activity change below about -50%; inconclusive means about -30% to -50%; inactive means above about -30%;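 note: stimulus is agonist 54-4 at its EC80 concentration; % is set by controls: 0 for no effect and ±100 for the full control effect; compound concentration not given in the record; the text of the record puts the active cut at -80%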
Target sequence (Q9GZU1 whole entry, looked up): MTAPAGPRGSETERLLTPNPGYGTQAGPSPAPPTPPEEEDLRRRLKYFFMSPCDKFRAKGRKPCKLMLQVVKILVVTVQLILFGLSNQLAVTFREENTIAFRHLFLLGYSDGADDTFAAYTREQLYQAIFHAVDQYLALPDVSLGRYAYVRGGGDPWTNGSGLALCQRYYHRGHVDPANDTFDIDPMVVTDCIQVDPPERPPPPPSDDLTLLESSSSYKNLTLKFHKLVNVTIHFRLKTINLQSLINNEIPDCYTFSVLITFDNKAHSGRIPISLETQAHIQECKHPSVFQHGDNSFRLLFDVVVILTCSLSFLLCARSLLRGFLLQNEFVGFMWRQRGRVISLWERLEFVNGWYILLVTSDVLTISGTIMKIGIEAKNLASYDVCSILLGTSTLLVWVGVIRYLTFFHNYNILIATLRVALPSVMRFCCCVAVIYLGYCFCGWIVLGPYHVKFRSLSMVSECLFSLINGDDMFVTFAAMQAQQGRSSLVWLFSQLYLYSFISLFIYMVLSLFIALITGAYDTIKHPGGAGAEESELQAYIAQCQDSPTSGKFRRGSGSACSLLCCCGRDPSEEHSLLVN
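Tet-induced TRPML1-DL cells loaded with Ca8 no-wash calcium dye were read kinetically on FDSS. Compound addition was followed by EC80 agonist 54-4 (4 uM final); inhibition was read over 110 s.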
PINK1 expr mod: modulators of PINK1 expression. PINK1 immunofluorescence, high-content cytometry, 24 h. Potency, µM (top dose mostly 76.6 µM), without a hit: at the top dose activation (PINK1 increase), most hits filed as activators. 0.2% of 410,000 active. AID 624263; active = well fitted activation curve with a large enough effect; inconclusive = small, poorly fitted or top-dose-only effect; inactive = flat fitted curve, though single readings scatter; cell line not stated here;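 note: potency is the fitted concentration of half-maximal effect; % of control where 0% means no effect; nearly all actives have a fitted effect of over 65% in size; a mitochondrial uncoupler was the plate control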
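Decision-based qHTS: stable cells, 24 h exposure to five compound concentrations, CCCP as control. Fixed cells stained for PINK1 plus nuclear, mitochondrial and cell markers, cytometer read.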
CtBP-E1A inh: blocks the CtBP interaction with E1A; AlphaScreen GST-E1A/His-CtBP binding, 1536-well; hits give low values; control for the full effect not named in the record; activity change, % (test concentration not listed); 0.49% of 340,000 active; in the data active means activity change below about -65%; inconclusive means about -30% to -65%; inactive means above about -30%; note: % is set by controls: 0 for no effect and ±100 for the full control effect; compound concentration not given in the record
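GST-E1A and His-tagged CtBP (125 nM each as 5X stock) were preincubated with pin-transferred compound for 2 h at 37 °C in the dark, then glutathione donor and nickel acceptor beads were added for 1 h before AlphaScreen reading.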
TRPML1 agonist: activates the human TRPML1 channel; TRPML1-expressing cells, Ca2+ dye fluorescence, FDSS; host cell line not named in the record; reference of the full effect not given here; 0.12% of 410,000 active; activation, % (no concentration beside the values); AID 624414; in the data active = activation above about 50%; inconclusive = about 30% to 50%; inactive = below about 30%; note: 0% is about no effect; the text of the record puts the active cut at 80%
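Tet-induced TRPML1-DL cells, 1,500 per well, cultured overnight, were loaded with a no-wash Ca2+ dye for 45–90 min. Calcium fluorescence was recorded on the FDSS for 110 s after compound addition, before the EC80 agonist (4 uM 54-4) was added.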
D2 ag: activates the human D2 dopamine receptor | DiscoveRx PathHunter D2 beta-arrestin, luminescence, 90 min; 100% = 57 uM dopamine signal | activation, % (test concentration not listed) | 0.084% of 360,000 active | AID 624465; in the data active = activation above about 40%; inconclusive = about 15% to 40%; inactive = below about 15%; note: compound concentration not given in the record; the text of the record calls up to 30% inactive
Target sequence (P14416 whole entry, looked up): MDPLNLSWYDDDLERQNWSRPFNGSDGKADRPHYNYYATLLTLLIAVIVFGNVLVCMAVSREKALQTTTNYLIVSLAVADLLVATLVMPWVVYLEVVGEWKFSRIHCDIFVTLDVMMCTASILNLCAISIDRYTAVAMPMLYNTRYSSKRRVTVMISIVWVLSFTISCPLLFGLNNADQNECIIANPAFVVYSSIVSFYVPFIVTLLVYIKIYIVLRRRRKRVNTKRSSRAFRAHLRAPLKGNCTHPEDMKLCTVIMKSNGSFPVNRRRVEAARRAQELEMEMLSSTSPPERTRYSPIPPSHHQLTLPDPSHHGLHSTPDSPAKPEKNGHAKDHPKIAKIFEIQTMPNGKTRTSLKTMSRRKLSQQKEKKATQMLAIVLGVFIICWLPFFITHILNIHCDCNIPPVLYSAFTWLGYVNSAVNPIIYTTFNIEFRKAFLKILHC
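DiscoveRx PathHunter D2 beta-arrestin cells (2,100/well) attached overnight, then compound-stimulated 90 min at 37 C in HBSS/10 mM HEPES/0.1% Tween-20 buffer; beta-galactosidase complementation read by luminescence after 1 h at ambient temperature. Dopamine 57 uM final (EC100) as control.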
Six1-Eya2 blk: blocks human Six1 binding to Eya2 | AlphaScreen GST-Six1/His-Eya2 binding, biochemical; hits give low values; control for the full effect not named in the record | activity change, % (test concentration not listed) | 0.56% of 360,000 active | AID 651725; in the data active = activity change below about -65%; inconclusive = about -30% to -65%; inactive = above about -30%; note: % is set by controls: 0 for no effect and ±100 for the full control effect; compound concentration not given in the record
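GST-Six1 + His-Eya2 (5X stock: 250/500 nM); Tris pH 8.0, 300 mM NaCl, 0.05% BSA, 0.02% Tween 20; GSH donor/Ni acceptor beads; 1 h 37 °C dark; AlphaScreen readout.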
* hit, by the source's call; ? = inconclusive; nt = no result given; & = joins results of further samples; [ ] = remark or other dose. This is a random part of the collection; any-hit rate near 1%.

SMILES	TRPML1 inh	PINK1 expr mod	CtBP-E1A inh	TRPML1 agonist	D2 ag	Six1-Eya2 blk
Cc1csc(SC(C)C(=O)Nc2ccc3c(c2)OCCO3)n1 (stereo not drawn)	-2	1.0%	nt	1.1	-4.0	1
CCN1CCN(Cc2nc3c(c(=O)n(C)c(=O)n3C)n2CCc2ccccc2)CC1	20	-0.1%	0	-0.2	-4.0	25
c1cc(-c2ccncc2)ccn1	-8	0.7%	3	0.0	-0.2	0
CS(=O)(=O)NN1C(=O)c2ccccc2NC1c1cccc2cccnc12 (stereo not drawn)	7	9.2%	5	0.2	-1.7	0
COc1ccccc1CN1C[C@@H]2C[C@@H](c3ccccc3C)N3CCC[C@@]23C1=O	44	2.3%	nt	1.1	-5.0	2
CCOC(=O)C1CCCN(C(=O)c2ccc3sccc3c2)CC1 (stereo not drawn)	nt	2.9%	7	-1.2	4.8	-5
O=c1oc2ccccc2c(O)c1Sc1c(O)c2ccccc2oc1=O	4	-2.7%	-83*	0.1	4.0	-74*
CC(=O)N1CCN(C(=O)c2cccc(S(=O)(=O)NCc3ccccc3)c2)CC1	0	2.0%	-20	0.2	-1.8	3
COc1ccc2c3c([nH]c2c1)[C@H]1C[C@H]2[C@H](C[C@@H](O)[C@H](OC)[C@H]2C(=O)O)CN1CC3	-9	-0.2%	-10	1.8	6.3	0
Cc1nnc(N/N=C/c2cc([N+](=O)[O-])c(N3CCC(C)CC3)cc2N2CCC(C)CC2)n1N	2	-2.0%	?	1.5	4.0	?
CCCN(CCC)CCNC(=O)C1CCCN(S(=O)(=O)c2cccc3nsnc23)C1 (stereo not drawn)	6	1.6%	nt	-0.6	nt	nt
Cc1cc2nc(-c3ccc(Cl)cc3)c(CC(C)(C)C)n2c(C)c1Br	-1	?	2	6.1	-3.2	3
Cc1ccccc1NC(=O)C1CCN(S(=O)(=O)c2cccc3nonc23)CC1	-16&9	6.2%&0.8%	1	-0.5&-1.0	-3.5	-6
COCCNC(=O)C1CCCN(C(=O)c2cc(-c3cccs3)oc2C)CC1 (stereo not drawn)	-11	0.2%	-1	0.4	1.6	-1
CC(=O)N1CCN(c2nc3c(C)ccc(Cl)c3s2)CC1	-11	-1.3%	nt	0.4	nt	nt
COc1ccccc1N(CC(=O)NCCSCc1ccccc1)S(C)(=O)=O	-14&-4	0.3%&0.0%	nt	-0.5&-0.4	3.0	0
O=C(Nc1cccn2ncnc12)c1cccc(C(F)(F)F)c1	7	-1.0%	3	-0.6	-1.9	-4
Cc1ccc(OCC(=O)N/N=C/c2cccn2C)cc1	11	-1.2%	-1	0.0	-4.3	-4
O=c1[nH]c(SCc2c(F)cccc2Cl)nc2c1CCCC2	11	3.3%	nt	1.3	nt	nt
COc1ccc(N2CCN(C(=O)c3cccc(N4C(=O)C5C6C=CC(C6)C5C4=O)c3)CC2)cc1 (stereo not drawn)	5	-1.2%	-2	-1.5	1.4	-4
O=C(COc1ccc(/C=N/NS(=O)(=O)c2ccccc2)cc1)NCc1ccccc1	22	1.1%	2	-1.3	-0.4	5
O=C(CSc1cccc[n+]1[O-])CSc1cccc[n+]1[O-]	9	-1.9%	2	0.1	-2.2	-2
Cc1cc(OC(=O)N2CCOCC2)cc(C)c1Cl	1	0.3%	0	-0.6	-7.3	0
O=C(CSc1nc(-c2ccccc2)c(-c2ccccc2)o1)NC1CCS(=O)(=O)C1 (stereo not drawn)	5	0.8%	0	0.4	-1.6	-6
COc1ccc(CC(=O)NCc2nnc(SCC(=O)N3CCN(c4ccccc4)CC3)n2C)cc1	11	-4.0%	-2	-0.8	-1.1	0
OCCC1CN(Cc2ccon2)CCN1Cc1ccc(F)c(F)c1 (stereo not drawn)	16	-3.8%	6	1.0	-1.8	4
CCSc1sc(CC)cc1C=O	-5	2.4%	7	0.8	-1.5	-1
O=C1c2cccnc2C(Nc2ccccc2)N1Cc1ccco1 (stereo not drawn)	2	-2.7%	6	-0.8	-4.5	-4
Cc1cccc(-n2cnc3cc(C(=O)N4CCCCC4)ccc32)c1	22	-0.1%[38.3 µM]	2	0.2	?	-2
Cc1ccc2nc(Nc3cccc(C(F)(F)F)c3)c3nnnn3c2c1	6	3.3%	nt	-0.2	nt	nt
Cn1nnnc1SCC(=O)N1CCN(Cc2ccccc2)CC1	-16	-2.4%[38.3 µM]	2	0.2	-1.7	4
CCOCCCn1c(SCC(=O)Nc2cc(C)ccc2C)nc2c(oc3ccccc32)c1=O	-13	-1.3%	nt	-1.1	nt	nt
O=C(Nc1ccccc1O)c1nc(Cl)ccc1Cl	13	2.5%	5	-0.5	1.8	4
O=C(NCCc1c[nH]c2ccccc12)Nc1ccccc1	15	-2.0%	-4	0.9	1.5	-2
Cc1cc(C)c2c(=O)n3c(nc2c1)C(Cc1ccccc1)NC(=O)c1cccnc1-3 (stereo not drawn)	-5	2.2%	-1	-0.2	-12	-4
O=C(NCc1ccc(F)cc1)c1cc(C2CCCCN2S(=O)(=O)Cc2ccccc2)on1 (stereo not drawn)	nt	0.7%	0	-0.3	-2.6	5
COc1ccc(OC)c(-c2cnc(OC(C)(C)C)nc2OC(C)(C)C)c1	-4	?	nt	0.5	0.3	3
COc1ccc(-c2cn3cccnc3n2)cc1NC(=O)c1ccccc1C(F)(F)F	19	1.2%	nt	0.5	nt	nt
CCCC(=O)NCc1cc(-c2nn(C)c(=O)c3ccccc23)ccc1OC	33	0.8%	4	0.9	-5.0	1
Cc1c(Cl)cccc1NC(=O)CSC(N)=O	11	3.3%	9	-0.2	0.3	0
CCO[C@@H]1OC(C(=O)NCc2ccccc2)=C[C@H](c2cn(C(C)=O)c3ccccc23)[C@H]1CCCO	-9	2.6%	1	-0.5	-1.8	3
COc1ccc(Oc2ccccc2C=O)cc1	-6	0.8%	7	-1.1	-3.9	7
COC(=O)c1ccsc1NC(=O)CCc1ccccc1	8	0.3%	nt	1.9	2.6	-1
CCc1ccc(OC(C)C(=O)Nc2ccccc2C(=O)N2CCOCC2)cc1 (stereo not drawn)	-6	-2.6%	-5	0.1	1.4	9
O=C(C1=C[C@@H](C2CCCCC2)C[C@@H](OCCCCO)O1)N1CCOCC1	23	-0.3%	3	0.3	-0.1	7
Cc1c(NC(=O)COc2ccc(C(C)C)cc2)c(=O)n(-c2ccccc2)n1C	26	-1.0%	3	-0.2	0.0	-1
CCNc1oc(-c2ccccc2F)nc1S(=O)(=O)c1ccccc1	-3	0.9%	-8	0.4	4.0	-14
O=C(NCC1CCCO1)C(c1cccs1)N(C(=O)Cn1nnc(-c2cccs2)n1)C1CCCC1 (stereo not drawn)	-21	-2.4%	-4	5.0	-0.8	4
COc1ccc(Cl)cc1S(=O)(=O)Nc1cccc(-c2ccc(N3CCCC3)nn2)c1	0	1.9%	nt	-0.3	nt	nt
COc1ccc(S(=O)(=O)NCCc2ccco2)cc1OC	-1	1.4%	nt	0.8	-4.0	-1

(further entries)
SMILES	TRPML1 inh	PINK1 expr mod	CtBP-E1A inh	TRPML1 agonist	D2 ag	Six1-Eya2 blk
CCC(Oc1ccccc1)C(=O)Nc1ccccc1N1CCCCC1 (stereo not drawn)	5	?	8	-0.1	3.4	17
Cc1cc(C)nc(N/N=C/C=C/c2ccccc2)n1	4	1.7%	-7	0.6	-1.7	-4
COc1ccc(C(=O)Nc2ccc(OCc3cc(=O)n4ccsc4n3)cc2)cc1OC	6	3.3%	nt	-0.5	nt	nt
CC1(C2CC2)NC(=O)N(CC(=O)N2CCN(c3ccc(F)cc3)CC2)C1=O (stereo not drawn)	-9	1.0%	9	-0.2	-1.9	4
Cc1ccc(C(C(=O)NC(C)(C)C)N(CCCN2CCOCC2)C(=O)c2ccc(-c3ccccc3)[nH]2)o1 (stereo not drawn)	13	0.7%	1	-0.2	-5.0	13
O=C(CSc1ccc(-c2cccnc2)nn1)N1CCCC1	10	0.3%	0	0.2	4.2	3
CCOc1ccc(NC(=O)C(NS(=O)(=O)c2cccc3nsnc23)c2ccccc2)cc1 (stereo not drawn)	0	-0.6%	nt	0.3	nt	nt
O=C(CN1C(=O)c2cccc3cccc1c23)NCc1ccccn1	0	2.5%	16	-0.7	-2.3	3
O=C(Nc1cccc(Br)c1)C1CC(=O)N(C2CCCC2)C1 (stereo not drawn)	12	0.7%	2	-0.7	-2.3	-11
CCn1c(/C=C/c2cc(Br)ccc2O)nc2ccccc2c1=O	37	8.2%	-4	1.7	-2.2	4

7 records picked at random from the list so far:
SMILES	TRPML1 inh	PINK1 expr mod	CtBP-E1A inh	TRPML1 agonist	D2 ag	Six1-Eya2 blk
O=C(Nc1cccc(Br)c1)C1CC(=O)N(C2CCCC2)C1 (stereo not drawn)	12	0.7%	2	-0.7	-2.3	-11
CCC(Oc1ccccc1)C(=O)Nc1ccccc1N1CCCCC1 (stereo not drawn)	5	?	8	-0.1	3.4	17
Cc1ccc(C(C(=O)NC(C)(C)C)N(CCCN2CCOCC2)C(=O)c2ccc(-c3ccccc3)[nH]2)o1 (stereo not drawn)	13	0.7%	1	-0.2	-5.0	13
O=C(CN1C(=O)c2cccc3cccc1c23)NCc1ccccn1	0	2.5%	16	-0.7	-2.3	3
COc1ccc(C(=O)Nc2ccc(OCc3cc(=O)n4ccsc4n3)cc2)cc1OC	6	3.3%	nt	-0.5	nt	nt
CCn1c(/C=C/c2cc(Br)ccc2O)nc2ccccc2c1=O	37	8.2%	-4	1.7	-2.2	4
CCOc1ccc(NC(=O)C(NS(=O)(=O)c2cccc3nsnc23)c2ccccc2)cc1 (stereo not drawn)	0	-0.6%	nt	0.3	nt	nt

(next part)
SMILES	TRPML1 inh	PINK1 expr mod	CtBP-E1A inh	TRPML1 agonist	D2 ag	Six1-Eya2 blk
O=C(C1CCCN(S(=O)(=O)c2cccc3nonc23)C1)N1CCC(Cc2ccccc2)CC1 (stereo not drawn)	30	-0.3%	-28	2.2	-0.6	-24
CCCc1cc(-c2nc(-c3ccc(C)cc3)cs2)ccn1	86	?	nt	1.4	-5.3	19
O=C(NC1CCCCC1)C1CCCN1S(=O)(=O)c1cccc2nsnc12 (stereo not drawn)	9	-4.0%	3	-0.4	-1.5	0
Cc1ccc(C(C)C)c(OCC(=O)NNC(=O)C2CSC3(C)CCC(=O)N23)c1 (stereo not drawn)	14	0.6%	7	-1.1	-3.5	-2
O=C(c1cc(COc2ccc(F)cc2Cl)on1)N1CCC(c2ccncc2)CC1	34	-0.4%	-1	0.9	-1.2	-8
COc1cc(N)c2ncsc2c1	-1	3.9%	?	0.5	9.2	-2
CC(=O)Nc1ccc(S(=O)(=O)N2CCN(c3cc(C)nc4ncnn34)CC2)cc1	-19	2.3%	-5	-0.2	7.1	2
C/C=C/Cn1c(SCc2ccccc2)nc2c1c(=O)[nH]c(=O)n2C	-21	-1.2%	2	3.1	0.8	1
C=CCn1c(N)cc(=O)nc1SC(C)C(=O)Nc1cccc2ccccc12 (stereo not drawn)	-6	-0.5%	-2	-0.4	-3.8	3
COc1ccc(-c2csc(C(C)(O)c3ccc(F)c(F)c3)n2)cc1 (stereo not drawn)	nt	11%	12	0.1	3.3	5

Source: PubChem
